TsaE inh: displaces an ADP probe from E. coli YjeE (TsaE); P0AF67; purified YjeE, fluorescence polarisation of a bound ADP probe; Potency, µM; 71,000 compounds, 0.05% hits; active = well fitted falling curve; inconclusive = weaker or top-dose-only fall, or a rising curve; inactive = flat or poorly fitted curve;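 further: top concentration of the series not given in the record; excess ADP was the control for the full effect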
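Fluorescence polarization of a BODIPY Texas Red–ADP probe (2 uM) bound to purified YjeE (10 uM) was read after 15 min room-temperature incubation with compounds. Loss of polarization marks inhibitors; ADP serves as titrated control.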
PK Bst: alters activity of Bacillus stearothermophilus pyruvate kinase; partly purified Bacillus stearothermophilus pyruvate kinase, luminescence ATP production; ribose 5-phosphate activator present at AC10; Potency, µM; 51,000 compounds, 1.2% hits; in the data active means potency below about 11 µM; inconclusive means mostly about 12 µM to 25 µM; inactive means weaker than that;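 the screen sought inhibitors and activators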;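 further: potency means the concentration at half of the fitted maximal effect; scaled between full activation by ribose 5 phosphate and full inhibition by luteolin; about four in five hits inhibit and the cells do not say which; series up to 57 µM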
Starred values were filed as active, the others as inactive; i = inactive; . = not tested or not shown. An excerpt; rates above refer to the full screens.

SMILES	TsaE inh	PK Bst
O=c1[nH]c2ccccc2c2nc3ccccn3c12	i	4.33*
COc1cc(/C=N/n2cnnc2)ccc1OC(=O)c1cccnc1	i	.
C[n+]1cnn2c1SCC1(COC1)C2	i	>57
O=C1CN(C(=O)CN2CCCC2)C(c2ccccc2)c2cc(Br)ccc2N1 (stereo not drawn)	i	>57
CCC(C)NC(=O)CS(=O)Cc1nc(-c2ccccc2C)oc1C (stereo not drawn)	i	.
COCCCNc1nc2c(c(=O)[nH]c(=O)n2C)n1CCCc1ccccc1	i	>57
O=C(COc1ccccc1O)c1cccs1	i	>57
CC(C)[C@H](NC(=O)NCc1cccs1)C(=O)O	i	>57
CCCCN(C)C(=O)CCC(=O)Nc1ccc2nc(N3CCOCC3)cc(C)c2c1	i	>11.4
O=C(NC1CCCCCCC1)C1=COCCO1	i	>57
CNc1nc(-c2ccccc2OC)nc2ccccc12	i	.
Cc1ccc2c(c1)N(CCC(=O)NCCN1CCOCC1)C(=O)CO2	i	>57
C=CCn1c(SCC(=O)c2ccc(OC)cc2)nnc1-c1cc2cccc(OC)c2o1	i	>57
C[N+](C)(C)c1nc(N)nc2c1ncn2[C@H]1O[C@@H](CO)[C@@H](O)[C@H]1O	i	.
CCCc1cc(=O)[nH]c(SCC(N)=O)n1	i	>57
CCN(CC)S(=O)(=O)c1cccc(C(=O)OCC(=O)N2CC(=O)Nc3ccccc32)c1	i	>57
Cc1cccc2cc(C#N)c(NCCNC(=O)NC3CCCCC3)nc12	i	>57
CN(C)S(=O)(=O)N(CC(=O)N1CCOCC1)c1ccccc1	i	.
COc1cccc(NC(=O)CSCc2n[nH]c(=O)[nH]2)c1	i	>57
COc1cccc(C2=CC(c3ccc(OC)c(OC)c3OC)n3nnnc3N2)c1 (stereo not drawn)	i	i
Cc1ccccc1Cn1cc(NC(=O)c2cc3nc(-c4ccco4)cc(C(F)(F)F)n3n2)cn1	i	>57
CCCc1cc(-c2nc(N)ncc2-c2ccc3c(c2)OCCCO3)c(O)cc1OC	.	>25.6
O=C(CSc1nnc(-c2cccs2)o1)NCC1CN(Cc2ccccc2)CCO1 (stereo not drawn)	i	>57
CCS(=O)(=O)N1CCN(Cc2ccncc2)CC1	i	>57
Cn1c2ccccc2c2nnc(SC3CCOC3=O)nc21 (stereo not drawn)	i	.
The listing continues:
SMILES	TsaE inh	PK Bst
Cc1ccsc1CNn1cnnc1SCc1ccccc1F	i	>57
O=c1cc(NCC2CCCO2)[nH]c(=O)n1-c1ccc(Cl)cc1 (stereo not drawn)	i	>57
CCCS(=O)(=O)N1CCC(C(=O)N2CCOCC2)CC1	i	>57
C=CCn1c(SCC(=O)Nc2ccccc2OC)nc(O)c(CC)c1=O	i	.
COc1ccccc1C(=O)Nc1ccc(S(=O)(=O)Nc2cc(C)on2)cc1	i	>57
COc1cc(-c2nc(-c3ccccn3)no2)cc(OC)c1OC	i	.
COc1cc(NC(=O)c2cccs2)c(OC)cc1NC(=O)CCn1nnc2ccccc21	i	>57
CCCCn1c(NC(=O)CC)c(C#N)c2nc3ccccc3nc21	i	.
CCCC(CCC(=O)Nc1ccc(C(=O)OCC)cc1)C(=O)O (stereo not drawn)	.	>25.6
CC(C)[C@@H](CC(=O)N[C@@H]1CCNC[C@H]1C(=O)N[C@H](CC(=O)N[C@@H](CCC(=O)O)CC(=O)O)Cc1c[nH]c2ccccc12)NC(=O)C[C@H](Cc1ccccc1)NC(=O)[C@@H]1CNCC[C@H]1N	i	.
CCC(C)(C)n1nnnc1C(c1cc2cccc(C)c2[nH]c1=O)N1CCCC1 (stereo not drawn)	i	.
Nc1cc(C(=O)OCC(=O)N2CCCC2)ccc1Cl	i	>57
COC(=O)COc1nc(C)c2c(c1C#N)CC(C)(C)OC2	i	>57
CCCCCSc1nc2c(c(=O)[nH]c(=O)n2C)n1CCc1ccccc1	i	.
COC(=O)c1ccc(N2CCN(C)CC2)c(NC(=O)c2cc3ccccc3o2)c1	i	>57
COC(=O)c1c(NC(=O)CSc2nc3c(c(=O)n(C)c(=O)n3C)n2C(C)C)sc(C)c1C	i	>57
CCC(=O)Nc1ccc(-c2nnc(-c3ccccc3)o2)cc1	.	>25.6
O=C(NCc1ccccc1)C1CCCN(C(=O)Nc2ccccc2)C1 (stereo not drawn)	i	>57
CCOc1ccc(OCC)c(NC(=O)CC2Oc3ccccc3NC2=O)c1 (stereo not drawn)	i	.
OC(COc1c(Br)cc(Br)cc1Br)CN1CCOCC1 (stereo not drawn)	i	>57
CCOC(=O)c1c(C)n(C)c2cc(OCCN(CC)CC)ccc12	i	>57
O=C(NCCC1=CCCCC1)C1CCN(C(=O)Nc2ccccc2)CC1	i	>57
COc1cccc(N2CCN(C3CCCC(C)C3)CC2)c1 (stereo not drawn)	i	>57
COCC(=O)N(Cc1cc2cc(OC)ccc2[nH]c1=O)c1ccccc1	i	>57
Cc1ccc(Cl)cc1N1CCN(C(=O)c2ccc(CN3CCOCC3)cc2)CC1	i	>57

Compound profiles, as listed above. Order of screens: TsaE inh | PK Bst
Profile of O=C(NCc1ccccc1)C1CCCN(C(=O)Nc2ccccc2)C1 (stereo not drawn) : i | >57
Profile of CCCCn1c(NC(=O)CC)c(C#N)c2nc3ccccc3nc21 : i | .

The listing picks up with the 4 entries that preceded the break.
SMILES	TsaE inh	PK Bst
O=C(NCCC1=CCCCC1)C1CCN(C(=O)Nc2ccccc2)CC1	i	>57
COc1cccc(N2CCN(C3CCCC(C)C3)CC2)c1 (stereo not drawn)	i	>57
COCC(=O)N(Cc1cc2cc(OC)ccc2[nH]c1=O)c1ccccc1	i	>57
Cc1ccc(Cl)cc1N1CCN(C(=O)c2ccc(CN3CCOCC3)cc2)CC1	i	>57
COc1ccc(C(C)NC(=O)C2CCCO2)cc1OC (stereo not drawn)	i	>57
COc1ccccc1NC(=O)N1CCCC1C(=O)NCc1ccccc1 (stereo not drawn)	i	>57
CC1(C)Cc2c(c(-c3ccccc3)nc3[nH][nH]c(=O)c23)CO1	.	>11.4
COc1ccc(OC)c(C2=NOC(C(=O)NCCN3CCOCC3)C2)c1 (stereo not drawn)	i	>57
CN(c1ccccc1C(=O)N1CCc2ccccc2C1)S(C)(=O)=O	i	>57
CCCCN(CCCC)CCC(O)c1cc2c(Cl)cc(Cl)cc2c2cc(C(F)(F)F)ccc12 (stereo not drawn)	i	.
COc1ccc(C(=O)n2nnc3ccccc32)cc1Br	i	>57
CCOc1ccc(N(CC(=O)O)S(=O)(=O)c2ccc(OC)c(OC)c2)cc1	i	.
O=c1n(Cc2ccccc2Cl)c2sc3c(c2c2ncnn12)CCCC3	i	>57
CC(=O)N1CCC2(CC1)CN(Cc1ccc(C#N)cc1)C2	i	.
N#Cc1cccc(NC(=O)N2CC3(CCN(C(=O)c4cc(C(F)(F)F)cc(C(F)(F)F)c4)CC3)C2)c1	i	.
O=C(O)c1ccccc1N[C@H](c1ccccc1)c1ccc2cccnc2c1O	i	.
C=CCn1c(Cc2ccc(OC(C)C)c(Cl)c2)nnc1SCC(N)=O	i	>57
O=C(CCN1C(=O)C2C3C=CC(C3)C2C1=O)NCCc1ccccc1Cl (stereo not drawn)	i	.
CN1C[C@H](C(=O)N[C@]2(C)O[C@@]3(O)[C@H]4CCCN4C(=O)[C@@H](Cc4ccccc4)N3C2=O)C[C@H]2c3cccc4[nH]cc(c34)C[C@@H]21	i	.
CCc1c(C)nc2ncnn2c1N1CCC(C(=O)N2CCN(c3ccccc3)CC2)CC1	i	>57
Cn1cccc1C(=O)N1CCC2(CCN(C(=O)Nc3ccccc3)CC2)CC1	i	.
COc1ncc2nc(-c3cn(C)c4ccccc34)c(=O)n(C)c2n1	i	.
CCS(=O)(=O)N1CCCC(C(=O)NC2CCCC2)C1 (stereo not drawn)	i	>57
O=C(NCc1cccs1)C(Cc1ccccc1)NS(=O)(=O)c1cccs1 (stereo not drawn)	i	>57
Nc1nc(SCC(=O)NCC2CCCO2)n[nH]1 (stereo not drawn)	i	>57
c1ccc(N2CCN(C3CCSC3)CC2)cc1 (stereo not drawn)	i	.
O=S(=O)(Cc1ccccc1)N1CCN(C/C=C/c2ccccc2)CC1	i	>57
CC(=O)c1ccc(OCC(O)CN2CCOCC2)cc1 (stereo not drawn)	i	.
CC(=O)c1cn(CC(=O)NCc2cccnc2)c2ccccc12	i	>57
Continuation:
SMILES	TsaE inh	PK Bst
Cc1ccc2c(CC(=O)NC3=NCCS3)coc2c1	i	>57
C=CCSc1nnc(NC(=O)c2cccc(S(=O)(=O)N3CCOCC3)c2)s1	i	>57
CC(=O)c1c(C)[nH]c(C)c1C(C)=O	i	.
COc1cccc(-n2cc3c(c2-c2ccccc2)c(=O)n(C)c(=O)n3C)c1	i	>57
Brc1cc(Oc2cc(Br)c(Br)c(Br)c2Br)c(Br)c(Br)c1Br	i	.
Cc1ccc2ccccc2c1CSc1nc(N)nc2c1ncn2CC(C)C	i	.
O=C(c1ccco1)N1CCN(CC(=O)N2c3ccccc3CCc3ccccc32)CC1	i	>57
Cc1cc(C)c2c(n1)nn1c(N3CCOCC3)cc(C)nc21	i	>57
CC(C)CC(=O)NCC(C)NC(=O)CC(C)C (stereo not drawn)	i	>57
CCNc1ncc2nc(-c3ccc(F)cc3)c(=O)n(-c3ccc(OC)cc3)c2n1	i	.
O=C(c1ccc(Nc2cccc(C(F)(F)F)c2)nc1)N1CCCC1	i	>57
Cc1ccccc1OCc1nnc2c3cnn(C)c3ncn12	i	>57
Cc1ccc(CNS(=O)(=O)c2ccc3oc(C(=O)O)c(C)c3c2)cc1	i	>57
CCc1nnc(NC(=O)CCC(=O)NC2CCCCC2)s1	i	>57
CCCCCC(=O)Nc1ccc(N2CCN(S(C)(=O)=O)CC2)cc1	i	>57
CCn1c(C(=O)NC(C)c2ccc3c(c2)OCCO3)cc2sccc21 (stereo not drawn)	i	.
Cc1noc(C)c1CSc1ccc2ccccc2n1	i	i
COc1ccc2c(c1)c(C(=O)CNc1nc(C)cs1)c(C)n2C	i	>57
CCCOC(=O)NC1C(NC(=O)OCCC)N(C)C(=O)N1C (stereo not drawn)	i	>57
CCC(C(=O)N1CCN(S(C)(=O)=O)CC1)c1ccccc1 (stereo not drawn)	i	>57
Clc1ccccc1CSc1ncccn1	i	>57
COc1ccc(CNc2oc(-c3cccc4ccccc34)nc2C#N)cc1	i	>57
CCOC(=O)C1CCN(C(=O)CCCOc2ccccc2)CC1	i	.
Cc1ccccc1-c1ccc2ncnc(NCCN3CCOCC3)c2c1	i	.
COc1cc(C2NC(=O)NC(c3ccccc3)=C2C(C)=O)ccc1OCC#N (stereo not drawn)	i	>57

Reformatted: entries from further up.
SMILES: O=C(c1ccco1)N1CCN(CC(=O)N2c3ccccc3CCc3ccccc32)CC1
  TsaE inh = i
  PK Bst = >57
SMILES: COc1cccc(-n2cc3c(c2-c2ccccc2)c(=O)n(C)c(=O)n3C)c1
  TsaE inh = i
  PK Bst = >57
SMILES: COc1cc(C2NC(=O)NC(c3ccccc3)=C2C(C)=O)ccc1OCC#N (stereo not drawn)
  TsaE inh = i
  PK Bst = >57
SMILES: Cc1ccc2ccccc2c1CSc1nc(N)nc2c1ncn2CC(C)C
  TsaE inh = i
  PK Bst = .

Further records follow.
SMILES	TsaE inh	PK Bst
Cn1c(C(=O)N2CCN(c3ccc(Cl)cc3)CC2)cc2c(=O)[nH]c3ccccc3c21	i	>57
CCCC(=O)Nc1ccccc1-c1nnc(SC)[nH]c1=O	i	.
Cc1cc(NCCCn2ccnc2)n2ncc(-c3ccccc3)c2n1	i	1.96*
Cc1cc(=O)oc(C)c1C(=O)O	i	>57
CCOc1ccc(Nc2nc3c(c(=O)[nH]2)CCCC3)cc1	i	>57
COCC(=O)Nc1ccccc1C(=O)Nc1ccc(OC)cc1	i	>57
C=CCNC(=O)C(C#N)c1nc2ccccc2nc1N1CCN(Cc2ccccc2)CC1 (stereo not drawn)	i	>57
O=C(CCSc1nc(-c2ccco2)cc(C(F)(F)F)n1)NCC1CCCO1 (stereo not drawn)	i	>57
COc1ccc(C(=O)Cn2c(N3CCOCC3)nc3ccccc32)cc1OC	i	>57
COc1cc2c(c(OC)c1OC)-c1ccc(OC)c(=O)cc1[C@@H](NC(C)=O)CC2	i	.
Nc1nonc1C(=O)NCCNC(=O)c1cccs1	i	>57
CCOC(=O)N1CCC(NC(=O)Cn2nc(-c3ccccc3)ccc2=O)CC1	i	>11.4
O=C(CCCSc1nc(-c2ccco2)cc(C(F)(F)F)n1)Nc1ccc2c(c1)OCO2	i	>57
Cc1ccccc1OCC1CO1 (stereo not drawn)	i	.
CN(Cc1ccccc1)c1oc(COc2ccccc2F)nc1C#N	i	.
O=C(C1CCCCC1)N(Cc1ccccc1)c1ccccn1	i	>57
Cc1cccc(NC(=O)c2cc(NC(=O)C3CCCCC3C(=O)O)ccc2Cl)n1 (stereo not drawn)	i	>57
CCOC(=O)C(C(C)=O)C(c1ccc(OC)cc1)C(C(C)=O)C(=O)OCC (stereo not drawn)	i	>57
CC(=O)c1cccc(NC(=O)CN(c2ccc(F)cc2)S(C)(=O)=O)c1	i	.
COc1ccc(Br)cc1C(=O)Nc1cccc(NC(=O)c2ccco2)c1	i	.
Cc1ccc(-c2nc3s/c(=C\c4ccco4)c(=O)n3n2)cc1	i	>57
O=C(Nc1ccccc1)N(Cc1ccc2c(c1)OCO2)Cc1nc2ccccc2c(=O)[nH]1	i	>57

From PubChem
